Screens as filed in PubChem BioAssay.
H5N1 antiviral: antiviral screen in MDCK cells, H5N1 avian flu | cytopathic effect, luminescence, 72 h; active compounds read high; no value below 0 was filed and about half of the inactive calls have no number; reference of the scale not given here | inhibition, % at 50 µM | 96,000 compounds, 0.07% hits | AID 740; in the data active = inhibition above about 25%
Starred values were filed as active, the others as inactive; i = inactive. Some of the compounds tested; the hit share may differ from the screen's.

Start of the data: the first 19 entries, ahead of the listing:
SMILES	H5N1 antiviral
O=C(CSc1nnc(-c2ccncc2)n1C1CCCCC1)Nc1ccccc1	1.2
CCOc1ccc2[nH]c(=O)c(CN(Cc3cccnc3)C(=O)Nc3ccccc3OC)cc2c1	0.9
O=C1C(Nc2cccc(O)c2)=C(N2CCCCC2)C(=O)c2ccccc21	i
Cc1ccc(NC(=O)C2CCN(S(=O)(=O)c3cccc4nonc34)CC2)nc1	0.0
CC(=O)c1cc(F)c(N2CCN(C(=O)c3ccco3)CC2)cc1C	1.4
Fc1ccccc1Cc1nnc2n1N=C(c1ccc(Cl)cc1)CS2	1.6
CC(C)(C)C(=O)N1CCN(c2ccc([N+](=O)[O-])c(NCC3CCCO3)c2)CC1 (stereo unspecified)	2.3
CCOC(=O)CC(=O)CSc1ncnc2c1cnn2-c1ccccc1	i
CCOCc1cnc(C)nc1NCC(=O)c1c(C)[nH]c2ccc(OC)cc12	0.2
CC1=NCCN1S(=O)(=O)c1cc(Cl)ccc1Cl	i
CC(=O)N1CCN(c2ccc(Oc3ncnc4sccc34)cc2)CC1	0.6
CC1CN(Cc2cc(=O)[nH]c(C(C)C)n2)CC(C)O1 (stereo unspecified)	0.8
O=C(CN(C(=O)CSc1nnc(COc2ccccc2)o1)c1ccc(F)cc1)NC1CCCC1	i
Cc1ccc2oc(=O)cc(CN3CCOCC3)c2c1	1.1
Cc1ccc(C(=O)c2cc3ccccc3o2)cc1	i
Cc1ccccc1-c1nc(CS(=O)CC(=O)NCCN2CCOCC2)c(C)o1 (stereo unspecified)	i
COC(=O)CCC(=O)c1oc2ccccc2c1N	i
COCCNC(=O)CCc1c(C)nc2c(-c3ccc(F)cc3)c(C)nn2c1C	i
O=C1c2ccccc2C(Nc2ccc(F)c(Cl)c2)N1Cc1ccco1 (stereo unspecified)	i

The list itself (from the top)
SMILES	H5N1 antiviral
O=C(CSc1nnc(-c2ccncc2)n1C1CCCCC1)Nc1ccccc1	1.2
CCOc1ccc2[nH]c(=O)c(CN(Cc3cccnc3)C(=O)Nc3ccccc3OC)cc2c1	0.9
O=C1C(Nc2cccc(O)c2)=C(N2CCCCC2)C(=O)c2ccccc21	i
Cc1ccc(NC(=O)C2CCN(S(=O)(=O)c3cccc4nonc34)CC2)nc1	0.0
CC(=O)c1cc(F)c(N2CCN(C(=O)c3ccco3)CC2)cc1C	1.4
Fc1ccccc1Cc1nnc2n1N=C(c1ccc(Cl)cc1)CS2	1.6
CC(C)(C)C(=O)N1CCN(c2ccc([N+](=O)[O-])c(NCC3CCCO3)c2)CC1 (stereo unspecified)	2.3
CCOC(=O)CC(=O)CSc1ncnc2c1cnn2-c1ccccc1	i
CCOCc1cnc(C)nc1NCC(=O)c1c(C)[nH]c2ccc(OC)cc12	0.2
CC1=NCCN1S(=O)(=O)c1cc(Cl)ccc1Cl	i
CC(=O)N1CCN(c2ccc(Oc3ncnc4sccc34)cc2)CC1	0.6
CC1CN(Cc2cc(=O)[nH]c(C(C)C)n2)CC(C)O1 (stereo unspecified)	0.8
O=C(CN(C(=O)CSc1nnc(COc2ccccc2)o1)c1ccc(F)cc1)NC1CCCC1	i
Cc1ccc2oc(=O)cc(CN3CCOCC3)c2c1	1.1
Cc1ccc(C(=O)c2cc3ccccc3o2)cc1	i
Cc1ccccc1-c1nc(CS(=O)CC(=O)NCCN2CCOCC2)c(C)o1 (stereo unspecified)	i
COC(=O)CCC(=O)c1oc2ccccc2c1N	i
COCCNC(=O)CCc1c(C)nc2c(-c3ccc(F)cc3)c(C)nn2c1C	i
O=C1c2ccccc2C(Nc2ccc(F)c(Cl)c2)N1Cc1ccco1 (stereo unspecified)	i
Cc1ccn2c(CN3CCOCC3)c(-c3ccccc3)nc2c1	1.3
O=C1CC(N2CCOCC2)C(=O)N1c1ccc2c(c1)OCO2 (stereo unspecified)	i
O=C(CCc1ccccc1O)N/N=C/c1ccc(Sc2cccc3cccnc23)o1	1.2
CCn1c2ccccc2c2cc(NC(=O)COC(=O)Cc3cn4ccsc4n3)ccc21	i
Cc1ccc(C)c(N2CCN(C(=O)CCn3c(=S)[nH]c4cc5c(cc4c3=O)OCO5)CC2)c1	3.1
Cc1noc(/C=C/c2ccco2)c1S(=O)(=O)N1CCC(C(=O)N2CCc3ccccc32)CC1	0.1
COc1ccccc1NC(=O)c1nnn(Cc2ccccc2)c1NC(C)=O	i
Cc1ccccc1NC(=O)CSc1nc2cc3c(cc2cc1C)CCC3	i
N#CC1=C2Sc3ccccc3N2CCCC1=O	i
CCCc1nc(SCC(=O)N2CCc3ccccc3C2)c2ccccc2n1	i
CCn1c(CNC(=O)COc2ccc(C(C)C)cc2)nnc1SCC(=O)Nc1ccc(F)cc1	i
N/C(=N\N=C\c1ccnc2ccccc12)SC1CC(=O)N(c2ccc(Br)cc2)C1=O (stereo unspecified)	i
N#Cc1cc(C#N)c(N2CCN(c3cccc(Cl)n3)CC2)nc1N	1.4
COc1cccc(CNC(=O)CCS(=O)(=O)c2cccc3nonc23)c1	i
Cc1ccc(C)c(S(=O)(=O)NCc2cccnc2)c1	0.5
O=C(Nc1ccccc1)c1cccnc1N1CCCC1	1.1
CCOC(=O)N1CCC(NC(=O)C(CC(C)C)NC(=O)C2CCC(C)CC2)CC1 (stereo unspecified)	0.0
COc1ccc2c(c1OC)C(=O)OC2Nc1nc(-c2ccccc2)cs1 (stereo unspecified)	i
O=C(NC1CCCCC1)C(c1ccc2ncccc2c1)N(Cc1ccc(F)cc1)C(=O)c1cccs1 (stereo unspecified)	i
CCCCN(CC)CCCNC(=O)CC1Oc2ccccc2NC1=O (stereo unspecified)	i
O=C1COc2ccc(C(=O)CSc3nnc(Cc4cccs4)n3-c3ccc(Cl)cc3)cc2N1	6.5
COc1cc(/C=C(\C#N)c2nc3ccccc3[nH]2)c([N+](=O)[O-])cc1OCc1ccccc1	0.6
COc1cccc(NC(=O)c2oc3ccccc3c2NC(=O)C(C)(C)C)c1	i
CC(=O)N1CCN(CCN=CC2=C(O)CC(C)(C)CC2=O)CC1	i
O=C(c1ccccc1)c1ccc2nc(-c3ccc(NC(=O)c4ccccc4F)cc3)[nH]c2c1	0.1
COc1ccc(/C=N/Nc2nc3ccccc3c(=O)[nH]2)cc1	i
Fc1ccc(-c2n[nH]c(=S)n2CC2CCCO2)cc1 (stereo unspecified)	0.6
CN(C)C(=O)CN(c1ccc(F)c(Cl)c1)S(C)(=O)=O	0.6
O=C(c1ccc(S(=O)(=O)N2CCCCC2)cc1)N1CCN(c2ccccc2)CC1	0.5
CCOc1ccc(-c2nc(CSCC(=O)NC3CCCc4ccccc43)c(C)o2)cc1 (stereo unspecified)	4.8
O=C(NCc1ccccn1)Nc1ccc(Cl)c(Cl)c1	i
O=C(OCCOCCN=C1NS(=O)(=O)c2ccccc21)c1ccncc1	i
COc1ccccc1C(=O)N(Cc1cccs1)C1CCS(=O)(=O)C1 (stereo unspecified)	0.9
O=[N+]([O-])c1ccc(-c2cc(-c3ccncc3)nc3ccc4ccccc4c23)cc1	i
CCc1nnc(NC(=O)CCC(=O)N2CCCC2)s1	0.2
O=c1c2[nH]c3ccccc3c2ncn1CCN1CCCCC1	i
ClCCNc1nc2ccc(Cl)cc2[nH]1	3.3
CC(C)N(C(=O)COC(=O)c1cc(Cl)cc(Cl)c1N)C(C)C	i
CCC(C)(C)n1nnnc1C(c1cccs1)N1CC=C(c2ccc(F)cc2)CC1 (stereo unspecified)	1.2
C=CCSc1nc(C)cc(/C=C\c2ccccc2)c1C#N	0.5
COC(=O)c1[nH]c2cccc(OC)c2c1NC(=O)CCN1CCN(c2ccccc2OC)CC1	i

More records
SMILES	H5N1 antiviral
CCS(=O)(=O)Nc1ccc(-c2nnc(SCC(=O)c3cccc(OC)c3)o2)cc1	i
CCOc1ccc(C2NC(=O)c3n[nH]c(C)c32)cc1 (stereo unspecified)	1.0
COc1ccc(NS(=O)(=O)c2ccc(C)c(C(=O)O)c2)cc1	0.7
CC1CCCN(CC(=O)Nc2ccc(S(=O)(=O)NC3CCCCC3)cc2)C1 (stereo unspecified)	0.3
Cn1c(SCc2nc(-c3ccc(Cl)cc3)no2)nnc1-c1ccccc1	0.9
COc1ccc(C2=NCC(CSc3nccc(=O)[nH]3)S2)cc1 (stereo unspecified)	0.1
CC(C)CNCC(=O)N1c2ccccc2Sc2ccccc21	i
COc1cc(C2NC(=O)NC(C)=C2C(=O)Nc2cccc(C)c2C)cc(OC)c1OC (stereo unspecified)	i
Cc1cc(NCCN2CCOCC2)n2nc(C)c(-c3ccccc3)c2n1	i
O=C(Cn1nnc(-c2ccccc2NC(=O)c2ccccc2)n1)Nc1ccc2c(c1)OCCO2	i
O=C(c1ccco1)N1CCN(S(=O)(=O)c2ccc(S(=O)(=O)NC3CCCC3)cc2)CC1	0.1
Cn1c(/C(C#N)=C(\O)COc2ccc3ccccc3c2)nc2ccccc21	i
COc1ccccc1C(=O)Nc1nnc(-c2ccc(F)cc2)o1	0.3
Cc1ccc2cc(C#N)c(SCC(=O)NCc3ccco3)nc2c1	4.1
CCOc1ccc(C2=Nn3c(nnc3-c3ccco3)SC2)cc1	3.2
CC(C)OC(=O)CSc1nnc(Cc2ccccc2)n1CC1CCCO1 (stereo unspecified)	0.4
CCOC(=O)c1ccccc1NC(=O)Cn1cnc2c(nnn2-c2ccc(C)cc2)c1=O	i
CCCC[N+](C)(C)CCC(=O)NC(C)(C)CS(=O)(=O)[O-]	i
COC(=O)c1sccc1NC(=O)Cn1nnc(-c2ccc(C)cc2)n1	2.5
CCOC(=O)c1ccc2nc(C)c(CCC(C)=O)c(Cl)c2c1	0.6
Cc1cc(Cl)ccc1NC(=O)CSc1nnc(Cc2cccs2)n1Cc1ccco1	1.6
O=C(N/N=C/C=C/c1ccccc1)C1CC1(c1ccccc1)c1ccccc1 (stereo unspecified)	i
CCCC1=C(C(=O)OCC)C(c2ccc(N(C)C)cc2)n2ncnc2N1 (stereo unspecified)	0.5
COC(=O)c1cc2ccccn2c2c(C(=O)OC)c(C(=O)OC)cc1-2	i
CCOC(=O)c1ccccc1NC(=O)CN1C(=O)c2ccccc2S1(=O)=O	i
O=C(NCc1ccc(F)cc1)c1cnc(-c2ccccn2)nc1C(F)(F)F	i
CCOc1ccc(C2c3c(oc4ccccc4c3=O)C(=O)N2c2ccc(C)cn2)cc1OC (stereo unspecified)	i
COc1ccccc1N(CC(=O)N1CCCCC1)S(=O)(=O)c1ccccc1	0.7
O=C1NC(=O)C(C/C=C/c2ccccc2)C(=O)N1	i
O=C(O)C1CCN(c2c([N+](=O)[O-])cc(C(F)(F)F)cc2[N+](=O)[O-])CC1	i
COC(=O)c1ccc(-n2c(C)ccc2-c2ccccc2)cc1	i
Cc1cccn2c(=O)c(C=NCc3ccccc3)c(NCCO)nc12	i
CCc1cc(C(=O)OC)c(N2C(=O)C3C4C=CC(C4)C3C2=O)s1 (stereo unspecified)	i
COc1ccc(C(=O)OCC(=O)Nc2ccc(F)c(F)c2F)cc1OC	0.3
CC(=O)Nc1ccc2c(c1)OCCO2	i
Cc1ccc(SCC(=O)O/N=C(\N)c2ccc([N+](=O)[O-])cc2)cc1	i
CC(C)OC(=O)CSc1nnc(-c2cnccn2)n1Cc1ccco1	2.2
O=C1CCc2cc(S(=O)(=O)N3CCC(C(=O)NC4CCCC4)CC3)ccc2N1	2.1
CCOc1cc(C(=O)N(C)Cc2cc3ccccc3[nH]c2=O)cc(OCC)c1OCC	0.5
CCCc1[nH]nc2c1C(c1cc(OC)cc(OC)c1)C(C#N)=C(N)O2 (stereo unspecified)	i
COC(=O)Cn1ccc(N(C)C)c(C#N)c1=O	1.2
Cc1cc(C)nc(Nc2ccccc2Br)n1	0.9
N=c1c2c(n(Cc3ccc(Cl)cc3Cl)c3c1CCC3)CCCC2	i
COc1nc(-c2ccc(Cl)cc2)ccc1-c1noc(-c2cccs2)n1	i
COc1ccc(CN(C(=O)c2cccs2)C(C(=O)NC2CCCCC2)c2ccc3ncccc3c2)cc1 (stereo unspecified)	i
O=C(CSc1nc2ccccc2n1Cc1ccccc1)N/N=C/c1ccco1	2.9
O=C(CSc1nc2cc(S(=O)(=O)N3CCOCC3)ccc2o1)NC1CCCc2ccccc21 (stereo unspecified)	i
COc1ccc(C(=O)OCC(=O)NCc2ccco2)cc1S(=O)(=O)N1CCN(c2cccc(Cl)c2)CC1	1.9
Cc1cccn2c(=O)c3cc(C#N)c(=O)n(-c4c(C)n(C)n(-c5ccccc5)c4=O)c3nc12	2.9
Cc1ccc(OC(=O)c2ccc(S(=O)(=O)N(C)C)cc2)c(-n2nc3ccccc3n2)c1	i
Cc1cc(C(=O)OCC(=O)Nc2ncc(C(F)(F)F)cc2Cl)c(C)o1	0.4
Nc1ncnc2c1CCC2	i
Cc1nc2ccccc2c(=O)n1/N=C/c1cccnc1	0.8
CC12CC(NC(=O)N1c1ccc(C(=O)N3CCN(c4ccccn4)CC3)cc1)c1ccccc1O2 (stereo unspecified)	0.1
CC(=O)Oc1cc2c(C(=O)NCCN3CCOCC3)c(C)oc2c2ccccc12	2.8
CCCOC(=O)CC1C(=O)NCCN1Cc1ccc(F)cc1 (stereo unspecified)	i
O=C1CC(SC(=Nc2ccccc2)Nc2ccccc2)C(=O)N1c1ccc(Cl)cc1 (stereo unspecified)	i
CCOc1ccc(N2CC(=O)Nc3ccccc3NCC2=O)cc1	1.0
N#CC1=C(N)Oc2n[nH]c(-c3cccs3)c2C1c1ccoc1 (stereo unspecified)	i
CCc1ccc(-c2nc(CSCC(=O)N3CCN(c4ccccn4)CC3)c(C)o2)cc1	i

New compounds follow.
SMILES	H5N1 antiviral
O=C(COc1ccccc1Cl)OCC(=O)N1CCN(S(=O)(=O)c2ccccc2)CC1	0.8
CCN1C(=O)NC(=O)/C(=C\c2ccc(N3CCOCC3)cc2OC)C1=O	i
CN(C)S(=O)(=O)c1ccc(C(=O)OCCCN=C2NS(=O)(=O)c3ccccc32)cc1	1.1
NC(=O)C1CCCN(S(=O)(=O)c2ccc(Br)cc2)C1 (stereo unspecified)	0.8
CC(=O)Nc1cccc(C(=O)Nc2ccccc2C(=O)O)c1	0.3
COc1cc(C(=O)OC(C)C(=O)N2CCc3ccccc3C2)ccc1OCC(=O)N1CCOCC1 (stereo unspecified)	1.3
Cc1cc2c(cc1C)CSC(c1ccc3ccccc3c1O)SC2	i
CS(=O)(=O)N(CC(=O)NCCSc1ccccc1)c1ccc2c(c1)OCO2	i
